Source: PubChem BioAssay (several laboratories)
Arbovirus inh = antivirals against arbovirus infection, primary screen, cell-based, full library, 10K replicate subset; arbovirus infection cell-based antiviral screen; inhibition, % at 10 µM; 0.37% of 200,000 active;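 active = inhibition from about 30%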;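 note: bluetongue infection of BSR cells; cell survival read as ATP light after 72 h; 0% = infected wells without compound and 100% = uninfected wells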
RecA splice inh = Mtb RecA intein splicing inhibitors, primary screen, biochemical, fluorescence, HTS. inhibition, %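 (about 9 µM by stock and volumes)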. cell-free RecA intein splicing. 0.75% of 290,000 active. Protein RecA (Mycobacterium tuberculosis (strain ATCC 25618 / H37Rv)), P9WHJ3; in the data active = inhibition above about 30%; inconclusive = no clear call, values can overlap the other calls;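 note: 0% = vehicle wells and 100% = reference inhibitor control wells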
Target sequence (P9WHJ3 whole entry, looked up, canonical isoform): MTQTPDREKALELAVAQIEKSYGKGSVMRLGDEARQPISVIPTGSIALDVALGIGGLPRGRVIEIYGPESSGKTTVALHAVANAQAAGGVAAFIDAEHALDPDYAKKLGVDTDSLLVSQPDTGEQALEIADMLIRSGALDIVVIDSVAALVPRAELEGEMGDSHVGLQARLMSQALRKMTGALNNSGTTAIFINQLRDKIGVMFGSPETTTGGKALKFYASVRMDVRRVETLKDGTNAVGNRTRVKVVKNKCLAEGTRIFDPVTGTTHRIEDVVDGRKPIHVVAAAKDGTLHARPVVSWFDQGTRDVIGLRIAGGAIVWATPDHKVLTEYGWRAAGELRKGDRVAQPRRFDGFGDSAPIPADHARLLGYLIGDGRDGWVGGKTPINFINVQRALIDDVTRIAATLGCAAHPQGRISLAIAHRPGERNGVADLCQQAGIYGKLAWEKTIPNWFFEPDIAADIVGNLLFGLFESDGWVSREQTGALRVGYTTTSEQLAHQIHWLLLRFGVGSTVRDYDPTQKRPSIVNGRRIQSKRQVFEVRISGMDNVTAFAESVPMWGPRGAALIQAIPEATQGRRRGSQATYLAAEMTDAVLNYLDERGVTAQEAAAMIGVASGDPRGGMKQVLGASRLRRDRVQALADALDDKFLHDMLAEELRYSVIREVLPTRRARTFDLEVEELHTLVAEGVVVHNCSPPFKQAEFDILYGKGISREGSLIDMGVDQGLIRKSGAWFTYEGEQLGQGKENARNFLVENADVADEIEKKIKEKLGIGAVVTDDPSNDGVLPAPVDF
Mtb bLac sens = beta-lactam sensitization of Mtb H37Rv, H37Rv; 0.27% of 330,000 active; inhibition, % at 25 µM; M. tuberculosis H37Rv growth with meropenem, percent inhibition; hits of this screen are not shown here;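 active = about 74% or more and at least 40 points above the plate without the antibiotic, then above 30% in a dose series; inconclusive = first-round hits that could not be retested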;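 note: growth measured after seven days incubation then overnight dye step; 0% = bacteria only wells and 100% = bacteria with antibiotic; twin plates without the antibiotic show which effects depend on it; some results filed as inactive read as strong as hits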
Mtb H37Rv = M. tuberculosis H37Rv growth inhibitors, H37Rv strain (AID 1626); 0.95% of 220,000 active; M. tuberculosis H37Rv growth inhibition; higher % means a stronger effect; inhibition, % at 10 µM, or IC50 in µM where a hit was titrated;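 active = confirmed in a dose series; inconclusive = inhibition above 80% but not taken into the dose series; inactive = below 80% or under 30% at every dose of the series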;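 note: bacteria incubated seven days before Alamar blue readout; 0% = bacteria only wells and 100% = bacteria with antibiotic wells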
YopH PTP inh = YopH tyrosine phosphatase inhibitors, primary screen, biochemical, fluorescence Ex485/Em525 | 0.16% of 140,000 active | YopH tyrosine phosphatase [Yersinia enterocolitica] | inhibition, %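 (about 10 µM by stock and volumes)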;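 active = inhibition of 50% or more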;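 note: controls were vehicle for no effect and minimum signal wells for full effect; inactives centre near -20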
Arbovirus inh repeat = recorded beside Arbovirus inh, whose call it bears; inhibition, %; measured here: 10K subset replicate screen; many hits read low in the repeat;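 first of two repeat runs on a subset; 0% = infected and 100% = uninfected wells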
* hit, by the source's call; u = inconclusive; x = no result given. Some of the compounds tested. The share of hits here may be higher or lower than overall.

SMILES	Arbovirus inh	RecA splice inh	Mtb bLac sens	Mtb H37Rv	YopH PTP inh	others
CCN(C(=O)c1ccc2c(Cl)c3c(nc2c1)CCC3)c1cccc(C)c1	-33	x	x	20%	-14
Cc1cccc(NC(=O)COc2ccccc2C)n1	-6	2.9	-7	-4%	-31
CCCn1c(=O)c(C(=O)Nc2ccccc2C(=O)OC)c(O)c2ccccc21	13	-1.7	-2	-3%	-38
O=C(O)CCN1C(=O)c2ccc(Oc3ccc4c(c3)C(=O)N(CCC(=O)O)C4=O)cc2C1=O	4	-2.1	4	4%	-20
CCN1C(=O)/C(=C\c2ccc(F)cc2)N=C1SCC(=O)NCc1ccco1	7	1.6	1	1%	-21
CCCCn1c(N)c(N(CCOC)C(=O)CSCc2ccccc2C)c(=O)[nH]c1=O	x	1.6	3	x	x
COc1ccc2ccccc2c1/C=N\NC(=O)c1ccc(C)s1	x	-2.0	-2	x	x
O=C(c1cnccn1)N(Cc1ccco1)C1(C(=O)NC2CCCC2)CCCCC1	9	x	u	-8%	2
O=C(C1CCC(=O)N1Cc1ccccc1Cl)N1CCN(c2ccc(F)cc2)CC1 (configuration not stated)	0	-1.7	-9	-1%	-13
O=C(Nc1cccc(Cl)c1)c1cnc[nH]1	x	-1.3	4	x	x
C=CCc1cc(Cl)ccc1OCCNCCOC	-13	0.8	5	15%	x
Cc1cc(C)c(C#N)c(SCC(=O)Nc2nnc(-c3ccccc3)s2)n1	5	-3.0	-1	-10%	2
COc1cccc(NC(=O)C2CCCN2S(=O)(=O)c2ccc3c(c2)C(C)(C)C(=O)N3C)c1 (configuration not stated)	x	2.3	3	x	x
CC(=O)Nc1nccc(-c2cc(-c3ccccc3)no2)n1	x	2.5	6	-10%	x
CC(C)(C)OC(=O)N1CC(O)CC1C(=O)OCC(=O)c1ccccc1 (configuration not stated)	4	0.3	-3	-11%	-17
CCOC(=O)CSc1nc2sc(C)c(C)c2c(=O)n1N	9	0.2	3	2%	-19
O=C(Nc1ccc(Cl)cc1)N1CCc2[nH]c3ccccc3c2C1	-13	3.2	4	6%	7
CN(C)S(=O)(=O)c1cccc(COC(=O)c2ccc(Cl)cc2O)c1	x	9.3	-12	0%	x
c1ccc(CN(Cc2cccs2)C(c2cccs2)c2nnnn2C2CCCC2)cc1 (configuration not stated)	-25	6.3	-8	17%	-4
Cc1ccc(Cn2ccc(=O)c(Cc3c(Cl)cccc3Cl)c2C)cc1	-6	8.9	30	1%	-22
Nc1nonc1OCCCCOc1nonc1N	-3	-4.2	1	1%	x
O=C(NNC(=O)c1ccc[nH]1)Nc1cccc(C(F)(F)F)c1	x	0.5	12	12%	x
COc1ccc(CNC(=S)Nc2ccc3nc(N4CCN(C)CC4)cc(C)c3c2)cc1	0	-2.1	73	40%	x
O=C(NCc1nc2ccccc2[nH]1)C1=C[C@@H](c2ccccc2)C[C@@H](OCCCCO)O1	0	1.4	-6	7%	x
Cc1ccccc1NC(=O)c1ccc(-n2cncn2)nc1	7	-2.1	2	2%	-12

Compounds listed so far containing an aryl methoxy group (3):
SMILES	Arbovirus inh	RecA splice inh	Mtb bLac sens	Mtb H37Rv	YopH PTP inh	others
COc1ccc2ccccc2c1/C=N\NC(=O)c1ccc(C)s1	x	-2.0	-2	x	x
COc1cccc(NC(=O)C2CCCN2S(=O)(=O)c2ccc3c(c2)C(C)(C)C(=O)N3C)c1 (configuration not stated)	x	2.3	3	x	x
COc1ccc(CNC(=S)Nc2ccc3nc(N4CCN(C)CC4)cc(C)c3c2)cc1	0	-2.1	73	40%	x

(more compounds)
SMILES	Arbovirus inh	RecA splice inh	Mtb bLac sens	Mtb H37Rv	YopH PTP inh	others
O=C(CCc1nnc(-c2ccccc2)o1)c1ccc(Cl)cc1	x	-1.5	-3	-7%	x
c1ccc(Cn2c(Sc3nnnn3-c3ccccc3)nnc2-c2ccccc2)cc1	0	2.0	11	5%	-12
O=C1/C(=C\c2ccsc2)N2CCC1CC2	x	1.4	-4	7%	x
CC(=O)Nc1ccccc1OCC(=O)NCCc1ccc(Cl)cc1Cl	-9	-1.4	-8	-3%	-15
O=C(Cn1nc(Cl)nc1Cl)Nc1ccccc1	3	1.1	1	-1%	-41
O=S(=O)(NCC(c1cccnc1)N1CCN(c2ccc(F)cc2)CC1)c1ccc(F)cc1 (configuration not stated)	3	12	1	4%	-23	Arbovirus inh repeat=2
Cc1cc(C)cc(C(=O)NC(CC(N)=O)c2ccc(NCCN3CCCC3)c([N+](=O)[O-])c2)c1 (configuration not stated)	x	0.2	-6	x	x
O=C(CCS(=O)(=O)c1ccc(Cl)cc1)NCCC1=CCCCC1	x	0.9	-12	x	x
Cc1ccc2nc(SCn3nnc4ccccc4c3=O)[nH]c2c1	-5	-0.3	-2	-8%	-23
C=CCC(C#Cc1ccc(C)cc1)N(CC)CC (configuration not stated)	0	0.2	-2	-2%	-4
O=C(Cn1nnc(-c2cccs2)n1)NCc1ccco1	-4	x	-3	8%	x
CCCCNC(C(=O)Nc1cccc(S(=O)(=O)N2CCOCC2)c1)c1ccccc1 (configuration not stated)	-7	-1.8	-9	7%	x
COc1ccc(NC(=O)Cn2c(NCC(C)O)nc3ccccc32)cc1Cl (configuration not stated)	-1	0.8	-2	-4%	x
CCN(CC1CCCO1)C(=O)c1cc(COc2ccc(OC)cc2Cl)on1 (configuration not stated)	x	-0.7	5	x	x
Cc1ccc(C(=O)Nc2ccc3c(c2)OCO3)cc1NC(=O)c1ccco1	-11	4.4	16	3%	x
COc1ccc(/C=C/C(=O)N2CCC(c3ccccc3)C2)cc1 (configuration not stated)	1	3.1	15	3%	-18
COc1cc(C2NC(=S)NC(c3ccccc3)=C2C(C)=O)cc(Br)c1OCC(N)=O (configuration not stated)	-4	-0.1	-6	-2%	x
CCC(C)c1ccccc1NS(=O)(=O)c1cnn(CC)c1 (configuration not stated)	x	1.9	u	x	x
Cc1csc(NC(=O)C(NS(=O)(=O)c2ccc(Br)s2)c2ccccc2)n1 (configuration not stated)	4	5.9	2	7%	-8
CC1=C(C)CC(C(=O)NCc2c(F)cccc2Cl)C(C(=O)O)C1 (configuration not stated)	x	-1.4	3	x	x
Cc1cccc(NC(=O)Nc2ccc(Oc3c(F)c(F)c(F)c(F)c3F)cc2)c1	1	0.8	2	0%	-6
CCc1ccc(S(=O)(=O)Nc2nccs2)cc1	x	-1.0	-2	x	x
CSc1cccc(NC(=O)COc2ccccc2C)c1	-4	1.5	-7	0%	x
CCOC(=O)CNC1CC(=O)N(c2cccc(Cl)c2)C1=O (configuration not stated)	3	-0.1	5	2%	1
Cc1ccc(S(=O)(=O)NCC(=O)N2CCN(c3ccccn3)CC2)cc1	3	-2.8	-7	-2%	-8

Remaining list, next part:
SMILES	Arbovirus inh	RecA splice inh	Mtb bLac sens	Mtb H37Rv	YopH PTP inh	others
N#Cc1c(-c2ccccc2)cc(-c2ccccc2)[nH]c1=O	x	-22	-4	x	x
Cc1cccc(C(=O)O/N=C2\CCCc3ccccc32)c1	4	0.0	7	-3%	-46
O=C(NCc1ccco1)/C(=C\c1cccs1)NC(=O)c1ccsc1	-1	-6.9	-4	1%	-20
COc1cc2nc(C3CCC3)n(NC(=O)C3CCCC(OC)C3)c(=O)c2cc1OC (configuration not stated)	1	2.0	-6	-13%	x
Cc1nc(S/C(=C/c2ccc(-c3ccc(C(=O)O)cc3)o2)C(=O)O)n[nH]1	x	0.1	-8	-17%	x
Cc1cc(Cl)ccc1OCCCC(=O)N1CCN(C)CC1	1	x	3	-13%	-3
Fc1ccc(C2N3CCCN23)cc1 (configuration not stated)	x	0.5	-2	-6%	x
COC(=O)CCSCC(=O)Nc1ccc(S(=O)(=O)N2CCOCC2)cc1OC	x	0.5	-10	2%	x
CC(C)OC(=O)C1CC(C)(O)C(=O)C(C(=O)OC(C)C)C1c1ccc([N+](=O)[O-])cc1 (configuration not stated)	5	0.6	6	3%	x
COc1ccc(C)cc1S(=O)(=O)N1CCCC(C(=O)NCC2CCCO2)C1 (configuration not stated)	0	-0.1	-8	-6%	12
Cc1c(C)n(C)c2ccc(C(=O)NCCCN3CCN(c4ccccc4F)CC3)cc12	x	4.0	19	x	x
COc1ccc(NC(=O)CCSc2cc(C)c3ccccc3n2)cc1	2	-1.5	25	48%	-14
COCCn1c(C)cc(C(=O)CSc2nc(C)nc3sc4c(c23)CCC4)c1C	x	-0.7	1	-2%	-32
O=C(NCCCN1CCOCC1)C(=O)NCC1OCCN1S(=O)(=O)c1ccc(F)cc1 (configuration not stated)	x	1.4	5	x	x
CC(C)N1CCN(c2ccncc2S(=O)(=O)N2CCOCC2)CC1	2	0.0	-4	0%	-22
Cc1c(C(=O)N2CCN(c3ncccn3)CC2)sc2nc3n(c(=O)c12)CCCC3	14	-1.8	u	-12%	-14
Oc1ccc(-c2[nH]nc(-c3ccccc3)c2-c2nc3ccccc3[nH]2)cc1	-2	6.4	-23	-9%	-9
COc1ccc(-c2c(C)n([O-])c3c([n+]2=O)CCCCC3)cc1OC	3	-3.7	-6	2%	x
O=C(Nc1ccc(F)cc1F)c1cc2ncc(CCCl)cn2n1	18	-3.2	64	55%	-7
NC(=O)c1cc(NC(=O)c2ccc(NS(=O)(=O)c3cccs3)cc2)cc(C(N)=O)c1	x	3.6	-7	0%	x
COc1cccc(NC(=O)CSc2nc3ncc(Br)cc3[nH]2)c1	x	1.9	-1	x	x
Cc1ccc(S(=O)(=O)N(CC(O)CN2CCOCC2)c2cccc([N+](=O)[O-])c2)cc1 (configuration not stated)	x	-0.9	-11	x	x
Cc1ccccc1-n1nc(C)c2cc(C(=O)N3CCN(S(=O)(=O)c4ccc(Cl)cc4)CC3)sc21	-16	10	-7	10%	-10
CN1CCN(P(=O)(c2ccccc2)c2nc3ccccc3s2)CC1 (configuration not stated)	-7	0.0	-7	-7%	-22
CCn1cc(-c2csc(N)n2)c(C)n1	4	-2.5	4	x	x

Not a retest: 5 of the compounds above.
SMILES	Arbovirus inh	RecA splice inh	Mtb bLac sens	Mtb H37Rv	YopH PTP inh	others
N#Cc1c(-c2ccccc2)cc(-c2ccccc2)[nH]c1=O	x	-22	-4	x	x
Cc1cccc(C(=O)O/N=C2\CCCc3ccccc32)c1	4	0.0	7	-3%	-46
O=C(NCc1ccco1)/C(=C\c1cccs1)NC(=O)c1ccsc1	-1	-6.9	-4	1%	-20
COc1cc2nc(C3CCC3)n(NC(=O)C3CCCC(OC)C3)c(=O)c2cc1OC (configuration not stated)	1	2.0	-6	-13%	x
Cc1nc(S/C(=C/c2ccc(-c3ccc(C(=O)O)cc3)o2)C(=O)O)n[nH]1	x	0.1	-8	-17%	x

(next part)
SMILES	Arbovirus inh	RecA splice inh	Mtb bLac sens	Mtb H37Rv	YopH PTP inh	others
CCOCCCNC(=O)C(NC(=O)Cc1c[nH]c2ccccc12)c1ccc(OC)cc1 (configuration not stated)	10	1.8	2	0%	x
Cc1ccc(OCC(=O)NCCNC(=O)c2ccncc2)cc1	x	-5.7	-4	x	x
CN(CCOc1ccccc1)S(=O)(=O)c1ccc2oc3ccccc3c2c1	17	2.8	-5	x	-2
O=C(NCCn1cc(SCC(=O)N2CCOCC2)c2ccccc21)c1ccccc1	3	-0.5	-4	0%	-19	Arbovirus inh repeat=4
COc1ccc(C(C#N)Nc2ccc(C)cc2)cc1 (configuration not stated)	-5	-8.8	1	-12%	-15
COc1ccc(S(=O)(=O)N2CCN(C/C=C/c3ccccc3)CC2)cc1NC(C)=O	x	-3.2	4	x	x
COc1cccc(OC)c1C(=O)NC(C)c1ccccc1 (configuration not stated)	3	2.1	-12	-4%	-1
Cc1cc(C)cc(NC(=O)Cn2cc(C=O)c3ccccc32)c1	x	-1.0	-3	x	x
CC(C)COCC(O)CCC(=O)NNC(=S)Nc1ccccc1 (configuration not stated)	-8	-5.4	-2	-1%	-23
Cc1cc(OCc2cc(C(=O)N(C)CCc3cnn(C)c3)no2)cc(C)c1Cl	x	6.8	91	x	x
O=C1CC(NS(=O)(=O)c2cccnc2)CN1c1cccc(F)c1 (configuration not stated)	x	-1.3	-3	x	x
Cc1nc2c3ccccc3nc(NNC(=O)CCC(=O)NCCN3CCN(c4ccccc4F)CC3)n2n1	x	-0.7	8	x	x
Cc1nn(CCC(=O)NNC(=S)NCC(C)C)c(C)c1Br	17	-4.1	u	-7%	-11
COc1cc2c(c(OC)c1OC)-c1ccc(N(C)CC(OC)OC)c(=O)cc1[C@@H](NC(C)=O)CC2	x	-1.6	-3	x	x
O=C(Nc1ccncc1)c1cc(S(=O)(=O)N2CCN(c3ccccc3)CC2)ccc1Cl	x	4.9	2	x	x
Cc1nnsc1-c1nc2ccccc2[nH]1	-1	-1.8	-2	5%	-15
